Bioassay records from PubChem BioAssay.
UCH37 DUB inh = human UCH37 deubiquitinating enzyme inhibition; purified proteasome/UCH37, Ub-AMC cleavage fluorescence; inhibition, % (test concentration not listed); 330,000 compounds, 0.33% hits; AID 588478;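 active = mean of two replicates above 20%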;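 also: 0% = compound-free wells with enzyme and 100% = wells lacking proteasome; stock transfer was 100 nL into about 20 µL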
Target sequence (Q9Y5K5 whole entry, looked up): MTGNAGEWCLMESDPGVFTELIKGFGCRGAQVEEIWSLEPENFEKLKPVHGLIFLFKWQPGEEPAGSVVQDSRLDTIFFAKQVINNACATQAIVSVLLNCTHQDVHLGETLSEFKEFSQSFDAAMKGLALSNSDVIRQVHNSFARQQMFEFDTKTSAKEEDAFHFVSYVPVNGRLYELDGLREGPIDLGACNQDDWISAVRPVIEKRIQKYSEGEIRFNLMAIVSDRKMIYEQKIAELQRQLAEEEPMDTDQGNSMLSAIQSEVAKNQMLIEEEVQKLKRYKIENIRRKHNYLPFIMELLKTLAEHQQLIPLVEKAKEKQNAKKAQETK
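Assay system: Proteasome-bound UCH37. Buffer or medium: pH 7.4 Tris-HCl (50 mM) with ovalbumin, ATP-MgCl2, DTT. Incubation: 30 min preincubation with enzyme, 25 min cleavage at room temperature. Measured by: fluorescence, ex 355 nm, em 460 nm. Read-out basis: percent inhibition. Control set: wells without proteasome as full block, compound-free enzyme plus substrate as uninhibited.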
HNF4A DNA FP = change in binding of human HNF4 alpha to DNA. P41235. HNF4a-FITC DNA binding, fluorescence polarization, 1 h. activity change, % at 10 µM. 360,000 compounds, 0.3% hits. AID 1224865; in the data active = activity change above about 30%, passing the limit was not always enough;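 also: controls were the assay level and a saturating level of protein; the project sought stronger binding though the title names inhibitors; some compounds called inactive have numbers as strong as hits; positive values seem to mean higher polarization but the record does not say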
FGF22 binding = FGF22 (human) thermal shift binding; recombinant FGF22 thermal shift, SYPRO orange fluorescence; percent of sucrose octasulfate shift, DMSO zero; calls only at 9.99 µM; 340,000 compounds, 1.5% hits; AID 651658;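 active = melting point raised past a set limit in the mean and every replicate; inconclusive = no clear call; three in four hits are not shown here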
Target sequence (Q9HCT0 whole entry, looked up): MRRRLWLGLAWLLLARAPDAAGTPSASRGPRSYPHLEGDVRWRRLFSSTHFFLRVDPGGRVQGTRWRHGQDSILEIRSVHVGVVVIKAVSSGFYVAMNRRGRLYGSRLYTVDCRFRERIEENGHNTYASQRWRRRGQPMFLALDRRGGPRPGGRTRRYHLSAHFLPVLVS
ALR H2O2 inh = blocks human ALR sulfhydryl oxidase activity; purified ALR, DTT oxidation, H2O2 HRP-luminol luminescence; P55789; inhibition, % (concentration not given with the values); 290,000 compounds, 3.8% hits;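 active = mean and each replicate at 75% or more; inconclusive = only one of the two met; inactive = neither met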;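 also: stock transfer was 7.5 nL into about 7.5 µL; 0% = neutral wells and 100% = wells with inactivated enzyme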
rRNA inh HTS = inhibits bacterial ribosomal RNA function over humanized ribosomes | E. coli WT GFP vs humanized-ribosome RFP mutants, fluorescence, 24 h; active compounds read low; DMSO median 0, no signal -100 | GFP signal change (wild-type ribosome), % (concentration not given with the values) | 350,000 compounds, 1.6% hits | AID 720706;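 active = significant combined selectivity score with lowered wild-type GFP, culture density cut under 30%, mutant RFP and density less affected; inactive = any of these conditions unmet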; also: one replicate is shown; some compounds called inactive have numbers as strong as hits
Ecoli growth = inhibitors of Escherichia coli growth; OD600, 23 h; active compounds read low; OD600 absorbance (no concentration beside the values); 330,000 compounds, 0.21% hits;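 active = OD600 absorbance below the run mean of sample wells minus 3.6 SD, in any replicate, cut at about 0.56 in these data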;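 also: stock transfer was 300 nL into about 60 µL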
B2AR ag = activates human beta-2 adrenergic receptor causing internalization. P07550. Am2.2-beta2AR cells, FAP receptor internalization, flow cytometry; reference of the scale not given here. response, % (test concentration not listed). 340,000 compounds, 0.43% hits. AID 504454;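 active = response above a set limit, near 3 SD of response in nonfluorescent compounds, cut at about 42% in these data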;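 also: stock transfer was 100 nL into about 11 µL; a reference agonist was the positive control; negative values mostly stem from fluorescent compounds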
Target sequence (P07550 whole entry, looked up): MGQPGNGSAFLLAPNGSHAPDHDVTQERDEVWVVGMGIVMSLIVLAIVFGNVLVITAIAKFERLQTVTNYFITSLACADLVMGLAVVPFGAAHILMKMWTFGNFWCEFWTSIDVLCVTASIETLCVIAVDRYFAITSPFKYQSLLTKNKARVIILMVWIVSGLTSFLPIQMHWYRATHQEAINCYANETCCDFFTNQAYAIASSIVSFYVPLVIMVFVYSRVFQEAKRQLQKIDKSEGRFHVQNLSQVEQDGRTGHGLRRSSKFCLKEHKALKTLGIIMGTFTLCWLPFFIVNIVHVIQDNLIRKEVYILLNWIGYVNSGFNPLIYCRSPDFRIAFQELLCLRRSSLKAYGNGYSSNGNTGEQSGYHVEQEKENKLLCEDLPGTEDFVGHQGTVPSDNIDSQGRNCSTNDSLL
rRNA inh HTS OD600 = second read-out of rRNA inh HTS, no call of its own (marks repeat the call); OD600 change, %; measured here: OD600 growth;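 optical density of the mix in the first replicate; 0 = DMSO median and -100 = no signal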
rRNA inh HTS RFP = further read-out of rRNA inh HTS, marked with its call; RFP signal change, %; measured here: RFP humanized mutant strains;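 first replicate; 0 = DMSO median and -100 = no signal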
* marks the source's active call; other numbers are inactive results; i = inactive; u = inconclusive; x = not tested or not shown.

Ecoli growth	ALR H2O2 inh	rRNA inh HTS RFP	B2AR ag	rRNA inh HTS OD600	FGF22 binding	UCH37 DUB inh	HNF4A DNA FP	rRNA inh HTS	structure
x	x	-0.3	3	16	i	x	-4.5	7	C=C1C(=O)OC2C=C(CO)CCC=C(CO)CC(OC(=O)C(C)C)C12 (stereo unspecified)
0.81	20	x	1	x	x	6.1	0.2	x	CC(=O)N1CCN(C(=O)Cn2c(=O)oc3ccccc32)CC1
0.62	3	4.0	-9	-19	i	-0.2	-0.8	-12	Cc1ccc(C)c(OCCC(=O)OCC(=O)c2c(N)n(C)c(=O)n(C)c2=O)c1
0.71	-6	x	6	x	x	2.0	-2.6	x	COc1cc(C)c(CNC2CCCCC2)cc1C
0.64	1	-0.8	5	4	i	-2.3	1.7	3	Cc1ccc(S(=O)(=O)NC(C)C(=O)NC(C)c2cccs2)cc1 (stereo unspecified)
0.69	0	x	-4	x	x	3.0	4.0	x	CCOC(=O)C1CCN(C(=O)c2ccc(N(C)S(C)(=O)=O)cc2)CC1
0.64	-3	x	-4	x	x	1.5	6.1	x	CSc1nnnn1-c1cccc(O)c1
x	1	3.3	4	7	x	x	-1.4	6	CCCCOc1ccc(Cc2c(COCC)[nH]c(=S)[nH]c2=O)cc1
0.64	x	-2.3	-2	8	i	1.3	-0.1	1	CN(CC(=O)Nc1ccc(N2CCOCC2)cc1)C(=O)CCNC(=O)c1ccccc1Cl
0.66	0	x	4	x	x	-0.2	-0.6	x	CC(=O)Nc1ccc(S(=O)(=O)CCC#N)cc1
0.7	24	x	-62	x	i	-370	-13	x	Cc1cc(-c2ccc(N3CCOCC3)cc2)nc2ccccc12
x	0	3.9	0	9	i	x	0.1	8	CC(C)[C@H](N)C(=O)NC[C@H](CC(=O)NC[C@H]1CC[C@H](C(=O)O)CC1)c1ccc(Cl)cc1
0.61	-2	-2.9	0	4	i	0.8	-0.3	1	CCOC(=O)CC1(NC(=O)C2CCC(=O)N(Cc3ccccc3F)C2)CCCCC1 (stereo unspecified)
0.7	5	-3.9	7	0	i	0.3	4.2	0	CCS(=O)(=O)c1ccc(O)c(NC(=O)Nc2ccccc2OC)c1
0.68	-4	x	-2	x	x	0.4	-0.4	x	Cn1c(SCc2ccccc2)nnc1C1CCCNC1 (stereo unspecified)
0.71	-4	1.1	-3	2	i	-2.1	-1.2	14	CC(C)(C)NC(=O)CCSc1nnc(-c2ccco2)o1
0.7	-21	-2.7	5	0	i	3.6	-6.5	3	CC(SCc1ccccc1)C(=O)Nc1ccccc1 (stereo unspecified)
0.69	-6	-1.6	-6	-8	i	-23	2.0	-10	CCSc1nnc2ccc(-c3ccc(C)cc3)nn12
0.71	-11	-1.1	11	13	i	0.3	-1.4	5	Cc1ccc(CNC(=O)C2CCN(c3nnc(N4CCCC4=O)s3)CC2)cc1
0.65	98*	x	-10	x	x	2.6	1.9	x	Nn1c(SCc2cn3cc(Cl)ccc3n2)nnc1-c1ccncc1
0.68	-2	-0.9	1	11	i	0.3	-1.5	9	Cc1ccc(NC(=O)C(=O)NCc2ccncc2)cc1
0.66	31	-9.4	-4	0	i	2.7	3.1	7	CCN1CCCn2c1nc1c2c(=O)n(C)c(=O)n1C
0.69	3	x	3	x	x	-0.2	4.3	x	CCCCN1C(=O)C2NN=C(C(=O)OCC)C2C1=O (stereo unspecified)
x	26	x	-8	x	x	x	1.8	x	C/C(=N\NC(=O)c1nc2ccccn2c1C)c1ccc2c(c1)OCO2
0.7	x	-0.1	8	-3	i	-1.0	2.6	1	COC(=O)c1sc(NC(=O)CN2CCN(c3cccc(Cl)c3)CC2)c(C(=O)OC)c1C
0.64	x	-2.5	-3	8	i	2.0	3.7	13	Cc1ccc(C)c(NC(=O)COC(=O)CSc2ccccc2)c1
0.67	9	x	x	x	x	-3.7	x	x	CCCC(=O)Nc1c(-c2cccs2)c(=O)c2ccccc2n1CC
0.67	0	2.0	3	2	i	3.4	-0.7	7	CCN(Cc1ccc(OC)c(COC)c1)CC1CCCN(CCc2cccc(F)c2)C1 (stereo unspecified)
x	x	x	1	x	i	x	-1.8	x	Cc1cc(=O)oc2cc(O)cc(O)c12
x	-4	-1.4	-2	3	i	x	-3.6	7	COc1cccc(CC(=O)n2nc(N)c3cc4ccc(OC)cc4nc32)c1

Some of these compounds in order of the rRNA inh HTS value, rising:
mol | Ecoli growth | ALR H2O2 inh | rRNA inh HTS RFP | B2AR ag | rRNA inh HTS OD600 | FGF22 binding | UCH37 DUB inh | HNF4A DNA FP | rRNA inh HTS
CN(CC(=O)Nc1ccc(N2CCOCC2)cc1)C(=O)CCNC(=O)c1ccccc1Cl | 0.64 | x | -2.3 | -2 | 8 | i | 1.3 | -0.1 | 1
Cc1ccc(CNC(=O)C2CCN(c3nnc(N4CCCC4=O)s3)CC2)cc1 | 0.71 | -11 | -1.1 | 11 | 13 | i | 0.3 | -1.4 | 5
Cc1ccc(C)c(NC(=O)COC(=O)CSc2ccccc2)c1 | 0.64 | x | -2.5 | -3 | 8 | i | 2.0 | 3.7 | 13

Going on with the list:
Ecoli growth	ALR H2O2 inh	rRNA inh HTS RFP	B2AR ag	rRNA inh HTS OD600	FGF22 binding	UCH37 DUB inh	HNF4A DNA FP	rRNA inh HTS	structure
0.74	7	x	3	x	x	1.4	1.7	x	CC(=O)Nc1c(Cl)n(C(C)=O)c2ccccc12
0.67	-2	-5.2*	-3	3.5*	i	-0.2	0.7	-30*	S=C(Nc1ccc(Cl)cc1Cl)N1CCCC1
0.75	26	x	5	x	x	3.8	-2.9	x	CCCn1c(SCC(=O)Nc2cccc(NC(C)=O)c2)nnc1C(C)C
0.68	-1	x	-5	x	x	0.9	1.3	x	CCn1cc(CNC(=O)c2cccc([N+](=O)[O-])c2)c(C)n1
x	-3	-0.4	-1	13	i	x	-1.3	7	Cc1cc(C)cc(NC(=O)CSc2nnc(CNC(=O)c3ccco3)o2)c1
0.69	0	-1.9	3	-3	i	-28	-0.3	-4	COc1ccccc1S(=O)(=O)Nc1cc(C)nn1-c1ccc(C)cc1
0.71	-9	x	-23	x	x	3.5	0.6	x	N#Cc1c(SCC(=O)N2CCCCC2)nsc1SCC(=O)N1CCCCC1
0.73	-2	x	-6	x	x	1.6	2.0	x	Cc1ccc(NC(=O)c2ccc(COc3ccc4c(c3)CCC4)cc2)c(C)c1
x	x	8.8	x	3	i	x	-2.9	1	CC(C)C[C@@H](CN1CCC[C@H]1CN1C(=O)C(=O)NC[C@@H]1Cc1ccccc1)N1C[C@H](Cc2ccc(O)cc2)N(CC2CCCCCC2)C(=O)C1=O
0.68	-4	-0.4	-4	0	i	2.8	1.9	5	O=C(NCC(c1ccco1)N1CCOCC1)c1ccc(Cl)cc1 (stereo unspecified)
0.7	-9	-2.6	0	-2	i	3.4	-6.5	-8	CC(C)c1ccccc1NC(=O)COC(=O)c1cc(=O)[nH]c(=O)[nH]1
0.62	-45	-0.8	-1	9	i	-94	1.7	8	COc1ccc2[nH]c(C(=O)NCCN3CCOCC3)cc2c1
0.68	-3	11	-1	-12	i	1.4	19	-18	Cn1c(C(=O)N[C@@H](C(=O)O)c2ccccc2)cc2cc(Cl)ccc21
0.72	-10	x	-4	x	x	3.0	-7.2	x	O=C(O)CN1C(=O)c2cccc(Oc3ccc(Cl)cc3)c2C1=O
0.73	-1	x	x	x	x	-20	-0.8	x	CC(=O)N1N=C(c2ccccc2)CC1c1cn(Cc2ccccc2)c2ccccc12 (stereo unspecified)

A few values from the list:
For UCH37 DUB inh, CCCn1c(SCC(=O)Nc2cccc(NC(C)=O)c2)nnc1C(C)C is listed with 3.8
For B2AR ag, N#Cc1c(SCC(=O)N2CCCCC2)nsc1SCC(=O)N1CCCCC1 is listed with -23
For B2AR ag, CC(=O)Nc1c(Cl)n(C(C)=O)c2ccccc12 is listed with 3
For rRNA inh HTS RFP, S=C(Nc1ccc(Cl)cc1Cl)N1CCCC1 is listed with -5.2*
For rRNA inh HTS, Cn1c(C(=O)N[C@@H](C(=O)O)c2ccccc2)cc2cc(Cl)ccc21 is listed with -18
For ALR H2O2 inh, Cc1ccc(NC(=O)c2ccc(COc3ccc4c(c3)CCC4)cc2)c(C)c1 is listed with -2

The list continues:
Ecoli growth	ALR H2O2 inh	rRNA inh HTS RFP	B2AR ag	rRNA inh HTS OD600	FGF22 binding	UCH37 DUB inh	HNF4A DNA FP	rRNA inh HTS	structure
0.66	-12	-1.5	-14	2	i	-38	4.0	1	O=C(O)c1ccc(/C=C2\CCCc3c2nc2ccccc2c3C(=O)O)cc1
0.65	-22	x	-1	x	x	7.4	-3.8	x	Cc1cccc(NC(=O)/C(=C\c2ccc([N+](=O)[O-])o2)NC(=O)c2ccc(Cl)cc2)c1
0.65	-1	1.9	-3	22	i	2.9	-0.1	13	CSc1ccccc1C(=O)NCc1ccc(F)cc1
0.71	u	x	-4	x	x	-4.7	-0.7	x	N#Cc1nc(-c2ccco2)oc1NCc1ccc(F)cc1
0.66	0	x	-1	x	i	1.5	11	x	O=C(NCCc1ccccc1)C(c1ccccc1F)N(C(=O)c1csnn1)C1CC1 (stereo unspecified)
0.68	4	x	-8	x	x	1.0	-2.2	x	CCN(CC(=O)NC(C)(C)C)C(=O)CCl
0.67	-4	2.3	16	30	i	-12	6.2	28	CN(C)C(CNC(=O)c1ccc2nc[nH]c2c1)c1ccccc1 (stereo unspecified)
0.6	14	0.2	-5	-7	i	3.5	-0.2	-2	COc1ccccc1NC(=O)CSc1n[nH]c(-c2cccnc2)n1
0.64	3	-1.0	112*	-4	i	-2.4	2.0	0	CN(CC(=O)N1CCN(c2ncccn2)CC1)S(=O)(=O)c1ccc(Cl)cc1
0.66	-28	20	3	1	i	6.0	-0.3	-16	CCOP(=O)(OCC)C(NC(=O)Nc1ccc(Cl)c(Cl)c1)c1ccccc1 (stereo unspecified)
0.73	-8	x	-4	x	x	-2.1	-1.1	x	CCOc1ccc(CCNC(=O)C2CCCN(c3nn4c(=O)cc(C)nc4s3)C2)cc1OCC (stereo unspecified)
0.67	x	-4.0	14	-18	i	2.9	-0.4	-22	Cc1ccc(C(=O)N(CCc2ccccc2)Cc2ccccc2)cc1S(=O)(=O)N1CCOCC1
0.72	-1	x	-11	x	x	0.5	-1.2	x	CCn1c(SCC(=O)Nc2c(C)n(C)n(-c3ccccc3)c2=O)nnc1-c1cccc(C)c1
0.64	0	-0.9	1	-29	i	-2.1	3.0	-22	Cc1cccc(S(=O)(=O)Nc2ccc3c(c2)OCCO3)c1
x	-15	x	3	x	x	0.3	1.5	x	C/C(N)=C(/C#N)C(=O)CSc1nc2cc(Cl)ccc2c(=O)n1-c1ccc(C)cc1
0.69	12	4.0	-2	16	i	7.6	-3.6	7	Nc1cc(=O)[nH]c(SCC(=O)c2ccc(O)cc2O)n1
0.65	-1	1.0	5	-7	i	-1.9	0.0	-4	NC(=O)c1nsc(C(=O)N(c2ccc(F)cc2)C(C(=O)NCC2CCCO2)c2c[nH]c3ccccc23)c1N (stereo unspecified)
0.73	-2	-1.7	-7	-10	x	3.3	-0.1	-5	CCCCCCCCNC(=O)C(CCC(=O)OCc1ccccc1)NC(C)=O (stereo unspecified)
0.71	99*	0.1	-1	10	i	-2.1	-0.3	2	COc1cccc(NC(=O)NNC(=O)CCc2ccc(O)c(O)c2)c1
0.75	x	3.3	-8	7	i	-31	3.2	5	CCOc1ccc(Nc2nc3ccccc3n3nnnc23)cc1
0.68	-2	x	2	x	x	-1.7	2.5	x	COc1ccc(OC)c(N(CC(=O)NCc2cccnc2)S(C)(=O)=O)c1
0.67	x	1.8	-2	12	i	6.8	7.1	19	Cc1cccc(NC(=O)C[n+]2ccccc2)c1

The list is partial (hit frequency here may not be typical).
